HNF4A DNA FP: change in binding of human HNF4A to DNA, primary screen, biochemical, fluorescence polarization, FITC-DNA. Hepatocyte nuclear factor 4-alpha (Homo sapiens), P41235. 1 h. activity change, % at 10 µM. 0.3% of 360,000 active; in the data active means activity change above about 30%, passing the limit was not always enough;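 further: controls were the assay level and a saturating level of protein; the project sought stronger binding though the title names inhibitors; some compounds called inactive have numbers as strong as hits; positive values seem to mean higher polarization but the record does not say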
Target sequence (P41235 whole entry, looked up): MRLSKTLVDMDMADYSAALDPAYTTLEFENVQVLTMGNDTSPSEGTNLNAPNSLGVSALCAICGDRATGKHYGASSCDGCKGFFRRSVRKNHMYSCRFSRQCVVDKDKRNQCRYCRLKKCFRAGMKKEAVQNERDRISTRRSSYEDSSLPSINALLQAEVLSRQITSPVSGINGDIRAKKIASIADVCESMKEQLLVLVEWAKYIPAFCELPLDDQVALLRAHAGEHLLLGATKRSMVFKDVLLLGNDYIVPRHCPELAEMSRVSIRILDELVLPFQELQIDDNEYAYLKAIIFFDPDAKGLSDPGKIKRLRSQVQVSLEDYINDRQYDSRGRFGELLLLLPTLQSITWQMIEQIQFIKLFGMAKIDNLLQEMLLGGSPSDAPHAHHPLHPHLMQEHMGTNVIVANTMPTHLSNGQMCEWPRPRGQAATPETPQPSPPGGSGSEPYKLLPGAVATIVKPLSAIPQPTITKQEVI
LANA-H2B inh: blockers of LANA interaction with H2A/H2B – biochemical, FP readout, HTS, primary screen | Protein LANA1 (Human herpesvirus 8 type P (isolate GK18)), Q9QR71 | cell-free LANA-H2A/H2B peptide, fluorescence polarization | inhibition, % (concentration not given with the values) | 0.6% of 320,000 active | AID 2629, 2010; in the data active means inhibition mostly above about 10%, no sharp cut-off; inactive means mostly below about 6.7%;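 further: stock transfer was 7.5 nL into about 10 µL; 0% = median of vehicle wells and 100% = median of positive control wells; one replicate is shown; the record names a cut of 25% in any replicate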
Vif TR-FRET: inhibitors of Vif binding to APOBEC3G peptide, primary screen, biochemical, TR-FRET, GST-Vif 1-94, biotin-A3G peptide, dose response retest (AID 1117319). inhibition, %; hits with a dose series show IC50 in µM. TR-FRET GST-Vif / biotin-A3G peptide binding; higher % means a stronger effect; test concentration not given here; strong numbers were not always called active. 0.57% of 260,000 active. Virion infectivity factor (Human immunodeficiency virus type 1 group M subtype B (isolate …;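 active means above the screen mean plus three standard deviations and confirmed in dose response; inconclusive means results disagree or hit not tested in dose response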;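 further: Vif residues 1-94 fused to GST binding biotinylated APOBEC3G peptide 110-148; 0% = full assay without inhibitor and 100% = GST in place of GST-Vif; retest series ran down from 100 µM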
Beta2AR agonist: beta2AR agonists driving receptor internalization, primary screen, cell-based, FAP fluorogen, flow cytometry. Beta-2 adrenergic receptor (Homo sapiens), P07550. response, % (no concentration beside the values). 0.43% of 340,000 active. Am2.2-beta2AR cells; reference of the scale not given here;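 active means response above a set limit, near 3 SD of response in nonfluorescent compounds, cut at about 42% in these data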;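 further: stock transfer was 100 nL into about 11 µL; a reference agonist was the positive control; negative values mostly stem from fluorescent compounds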
Target sequence (P07550 whole entry, looked up): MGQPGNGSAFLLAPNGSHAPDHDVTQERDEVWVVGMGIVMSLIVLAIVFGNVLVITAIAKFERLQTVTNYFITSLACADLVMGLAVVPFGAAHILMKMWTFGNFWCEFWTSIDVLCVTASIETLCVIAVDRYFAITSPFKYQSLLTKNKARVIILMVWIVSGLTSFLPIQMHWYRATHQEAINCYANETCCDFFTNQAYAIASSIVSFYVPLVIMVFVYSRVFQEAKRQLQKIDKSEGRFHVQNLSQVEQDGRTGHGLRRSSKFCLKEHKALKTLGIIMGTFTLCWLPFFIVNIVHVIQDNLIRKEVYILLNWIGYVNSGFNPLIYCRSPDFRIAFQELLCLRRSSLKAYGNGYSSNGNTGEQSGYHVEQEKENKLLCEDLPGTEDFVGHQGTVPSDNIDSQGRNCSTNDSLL
ALR inh: inhibitors of human ALR sulfhydryl oxidase, primary screen, biochemical, H2O2 detection, HRP-luminol luminescence, single point; purified ALR, DTT oxidation; AID 485317, 2010; FAD-linked sulfhydryl oxidase ALR (Homo sapiens), P55789; inhibition, % (concentration not given with the values); 3.8% of 290,000 active;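 active means mean and each replicate at 75% or more; inconclusive means only one of the two met; inactive means neither met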;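 further: stock transfer was 7.5 nL into about 7.5 µL; 0% = neutral wells and 100% = wells with inactivated enzyme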
Target sequence (P55789 whole entry, looked up): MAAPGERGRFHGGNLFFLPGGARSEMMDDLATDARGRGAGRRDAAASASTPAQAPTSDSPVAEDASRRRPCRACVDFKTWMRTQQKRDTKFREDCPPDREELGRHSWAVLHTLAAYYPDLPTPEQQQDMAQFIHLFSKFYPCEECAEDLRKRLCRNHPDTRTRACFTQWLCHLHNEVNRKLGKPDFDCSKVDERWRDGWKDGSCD
RanGTP-Imp inh: inhibitors of RanGTP-importin-beta interaction, primary screen, biochemical, FRET, CFP-Ran, YFP-importin-beta, homogeneous. inhibition, % (test concentration not listed). Ran GTPase (GTP-bound) - importin-beta complex. AID 2216, 2009. cell-free CFP-Ran/YFP-importin-beta FRET ratio. 1.1% of 300,000 active;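 active means most replicates above 15%; inconclusive means exactly half above 15%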;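 further: 0% = DMSO wells and 100% = Ran loaded with GDP instead of GTP; wells of about 40 µL received 100 nL stock; the first replicate is given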
Calb FLC: C. albicans growth inhibition with fluconazole, primary screen, CaCi-2 strain, Alamar Blue fluorescence | C. albicans CaCi-2 (fluconazole-resistant clinical isolate) + fluconazole, 48 h | growth inhibition, % (test concentration not listed) | 0.57% of 300,000 active | AID 1979, 2009;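 active means most replicates above 75%; inconclusive means exactly half above 75%; inactive means most below 75%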;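 further: all wells also contain fluconazole at 8 µg/ml as a sub-toxic cotreatment; 0% = median of DMSO wells and 100% = median of geldanamycin control wells; wells of about 8 µL received 7.5 nL stock; the first replicate is given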
Starred values were filed as active, the others as inactive; ? = inconclusive; · = not tested or not shown.

SMILES	HNF4A DNA FP	LANA-H2B inh	Vif TR-FRET	Beta2AR agonist	ALR inh	RanGTP-Imp inh	Calb FLC
Cc1ccc(S(=O)(=O)N(C)C)cc1-n1c(SCC(=O)Nc2ccc(F)cc2)nc2ccccc2c1=O	-1.8	0.4	-2%	-4	-6	1.6	-7
O=C1NC2CCCCC2C(=O)N1OS(=O)(=O)c1ccccc1 (configuration not stated)	1.3	·	-9%	3	·	·	·
CC(c1ccco1)N(C(=O)c1ccc(C#N)cc1)c1ccccn1 (configuration not stated)	0.1	-5.3	-4%	2	0	0.9	-28
Cn1c(=O)c2c(ncn2CC(=O)N/N=C/C(Cl)=C/c2ccccc2)n(C)c1=O	-2.2	-3.6	3%	2	-3	-3.9	-6
O=C(NCc1ccccn1)c1ccccc1OCc1ccc(F)cc1	-0.7	0.1	0%	-6	1	-4.0	-2
CCOc1ccc(/C(CCC(=O)O)=N/NC(=S)NCCc2ccccc2)cc1	3.1	2.8	-6%	14	·	6.4	1
O=C(OCC(=O)c1c[nH]c2ccccc12)c1cccc([N+](=O)[O-])c1	6.1	5.4	·	5	21	·	·
CC(C)(C)N/N=C1\CC(c2ccccc2)Oc2ccccc21 (configuration not stated)	4.7	3.2	·	13	14	-5.3	20
Cc1ccc(-n2c(C)cc(C(=O)CN3CCOCC3)c2C)cc1C	3.4	1.4	7%	-10	·	-0.3	-8
COc1ccc(-c2cc(C(F)F)n3ncc(C(=O)Nc4cc(C)on4)c3n2)cc1	-6.2	-4.9	-7%	-11	-8	-1.9	?
Cc1cccc(NC(=O)CSc2nnnn2-c2cccnc2)c1	-0.4	6.9	2%	-3	18	0.5	-4
N#C/C(=C\c1ccc([N+](=O)[O-])cc1)c1ccccn1	0.5	2.9	-8%	-1	-9	-1.1	2
Cn1c(CCC(=O)Nc2ccccc2F)nnc1SCC(=O)Nc1ccccc1Cl	3.0	-2.5	-19%	-2	-25	2.2	20
CCc1[nH]nc(C(=O)N2CCCC(Nc3ccc(C(C)C)cc3)C2)c1C (configuration not stated)	-4.1	2.1	·	-9	95*	?	3
Cc1ccc(C(C(=O)NC2CCCCC2)N2CCN(C(=O)c3ccco3)CC2)cc1 (configuration not stated)	-2.2	1.3	-6%	-2	-2	-0.6	-2
COc1cccc(C=NN2CCCCCC2)c1OC	1.1	·	-10%	-8	·	·	·
CCCCN(C(=O)NC(=O)Nc1cccc(C)c1C)S(C)(=O)=O	1.4	-1.9	-2%	10	2	2.8	-2
CCSc1nc2nccnc2c(=O)[nH]1	0.2	·	-3%	2	·	·	·
O=S1CCCSC1c1cccnc1 (configuration not stated)	-2.2	3.6	-1%	1	-6	6.0	9
O=C(Oc1ccc(-c2ccccc2)cc1)C1C2CCCCC21 (configuration not stated)	-0.7	-0.6	8%	-1	3	0.5	21
CN(CCc1ccccc1)C1CCCN(S(=O)(=O)N(C)C)C1 (configuration not stated)	3.9	-1.7	3%	3	·	5.3	0
CCOC(=O)c1ccc(Oc2ccc(C(F)(F)F)cn2)cc1	1.3	0.7	3%	1	2	8.5	23
O=C(O)c1ccc(C(=O)c2cc([N+](=O)[O-])cc([N+](=O)[O-])c2)cc1	4.0	·	-10%	-1	·	·	·
CCc1ccccc1NC(=O)c1cc(-c2ccc(F)cc2)on1	5.6	-4.1	3%	-1	-5	-0.6	-6
Cc1ccsc1CN(C)C(=O)CN1C(=O)NC(c2ccccc2)(c2ccccc2)C1=O	-0.7	0.4	·	1	·	·	·
CC1CCCN(S(=O)(=O)c2ccc(C(=O)Nc3nnc(-c4ccncc4)o3)cc2)C1 (configuration not stated)	-2.9	-6.3	-10%	2	12	0.1	18
O=C(Cn1c(-c2cscn2)nc2ccccc21)Nc1ccc2ccccc2c1	5.0	4.5	-3%	10	4	?	27
O=C(C1CCCN1C(=O)c1cccs1)N1CCN(Cc2ccc3c(c2)OCO3)CC1 (configuration not stated)	6.2	9.3	-1%	9	-6	2.0	-4
Cc1ccc(N2CCN(C(=O)C3CCCN(c4ncnc5c4nc4n5CCCCC4)C3)CC2)c(C)c1 (configuration not stated)	1.7	-2.3	1%	22	-1	3.0	-1
O=C(N/N=C/c1ccc([N+](=O)[O-])cc1)c1cccc(N2CCCC2=O)c1	-2.4	3.3	·	-5	-9	-1.4	1
O=C(c1ccc(OC2CCN(Cc3cccc(OCCO)c3)CC2)cc1)N1CCCC1	-1.3	-0.5	·	2	-12	2.6	-1
COc1ccccc1CNS(=O)(=O)c1ccc2c(c1)N(C(C)=O)CC(C)S2 (configuration not stated)	9.8	-3.4	-11%	4	-1	-0.7	-5
O=C(Cn1cnc([N+](=O)[O-])n1)N/N=C/c1ccc(O)cc1O	-5.3	-0.6	1%	4	72	-2.8	-20
Cc1ccc(-c2cc(C(=O)Nc3ccc(S(=O)(=O)Nc4onc(C)c4C)cc3)[nH]n2)c(O)c1	-0.3	-4.5	8%	18	11	0.8	-9
COc1ccc(Br)cc1S(=O)(=O)Nc1cccc(C)n1	-1.7	-2.2	7%	-3	1	3.0	4
CN(C)/C=C1\C(=O)N(c2ccc(Oc3ccccc3)cc2)CS1=O (configuration not stated)	0.6	0.7	1%	-7	73	5.4	4
O=C(C[n+]1cccc2ccccc21)c1ccc(Br)cc1	5.9	-0.3	-5%	-7	8	-11	-17
Cn1c(CCN2CCCCC2)nc2cc(NC(=O)C3CCCCC3)ccc21	-0.3	-0.8	4%	-5	-7	0.4	-17
CCOc1ccccc1NC(=O)C1CC(=O)n2ncnc2N1 (configuration not stated)	-2.5	-6.5	3%	-4	-4	-8.0	3
O=c1[nH]c(Nc2ccccn2)cc2ccccc12	-0.1	-0.5	·	2	38	38*	-4
Cc1cccc(C)c1NC(=O)COC(=O)c1nonc1N	-4.1	-1.4	9%	0	-16	-0.3	8
CCN1CCN(C(=S)Nc2ccc(Cl)cc2)CC1	-0.3	4.4	1%	2	-11	-0.5	2
CC(=O)c1ccc(S(=O)(=O)N(C)CC(=O)N2CCCCCC2)cc1	6.0	1.3	2%	-4	-8	2.7	1
C[N+](C)(C)C(Cc1ccccc1)C(=O)[O-] (configuration not stated)	0.2	-1.6	·	3	-6	4.1	0
CC(=O)Nc1ccc(N=NN2CCOCC2)cc1	-5.0	2.0	-5%	-5	11	1.2	-3
O=C(O)C1CCN(Cc2cccnc2)CC1	1.3	-1.3	-2%	0	-2	-2.0	5
NCCCC(=O)N1c2ccccc2Sc2ccc(Cl)cc21	-2.2	-3.4	-7%	8	34	-2.1	-10
CC1CCCC(C(=O)O)N1C(=O)CCSSCCC(=O)N1C(C)CCCC1C(=O)O (configuration not stated)	-6.1	4.1	5%	-1	20	-1.9	32
CCN(CC)C(=O)OCc1c(-c2ccccc2)ncc2ccccc12	0.3	-14	·	-6	-2	·	·
COc1ccccc1-n1nnnc1S(=O)(=O)Cc1ccc(Cl)cc1	0.1	·	-3%	32	·	?	-5

Next compounds follow:
SMILES	HNF4A DNA FP	LANA-H2B inh	Vif TR-FRET	Beta2AR agonist	ALR inh	RanGTP-Imp inh	Calb FLC
COc1ccc(N(CC(=O)N2CCN(Cc3ccccc3)CC2)S(C)(=O)=O)cc1Cl	5.7	-4.4	·	-9	-3	2.8	-8
CCn1ncc(Br)c1C(=O)Nc1cccc(F)c1	6.2	0.2	-1%	-4	-9	2.5	-8
CC(C)CC(NC(=O)c1ccco1)C(=O)Nc1ccc2c(c1)OCCO2 (configuration not stated)	-4.2	-0.4	3%	1	4	2.0	4
Cc1cccc(NC(=O)CSCC(=O)Nc2cccc(S(=O)(=O)N3CCCCCC3)c2)c1	2.3	-3.9	-5%	5	-8	2.2	12
CCOC(=O)c1ccc(NC(=O)CCS(=O)(=O)c2cccc3nonc23)cc1	3.7	3.2	·	-4	·	-2.0	-1
CCOc1cc(C(=O)N2CCC3(CC2)NCCc2[nH]cnc23)cc(OCC)c1OCC	-0.1	-0.4	·	-1	·	2.0	6
COc1ccc(CCN(C)C(=O)COc2ccc(N(C)S(=O)(=O)c3ccc(C)cc3)cc2)cc1OC	3.0	-4.1	-1%	1	·	0.9	-1
O=C(/C=C/c1ccc2ccccc2n1)N1CCN(S(=O)(=O)c2ccccc2F)CC1	2.1	4.0	8%	13	-14	-2.5	0
COc1ccc(CCNC(=O)c2cc(S(=O)(=O)N3CCCCC3)ccc2Cl)cc1	3.9	·	-1%	0	·	·	·
COc1cc(C(=O)Nc2nc(N)n(-c3ccccc3)n2)cc(OC)c1OC	0.3	-2.2	-2%	-2	-13	4.7	-4
CN(CC(=O)Nc1ccccc1Br)C(=O)c1ccc2c(=O)n3c(nc2c1)CCC3	-4.3	-13	2%	-2	-6	·	·
Cc1ccc(OCc2nnc(SCC(=O)C(C)(C)C)n2Cc2ccco2)cc1	0.9	-1.9	4%	-10	17	-3.3	-14
CC(C)(C)c1ccc(NC(=O)c2ccsc2)cc1	-2.3	3.3	-10%	16	-8	-1.8	2
COCCCNC(=O)[C@H](CSCc1ccccc1)N1Cc2ccccc2C1=O	6.1	-1.1	-13%	-7	-4	-0.5	-2
N#CCC(=O)N/N=C/c1cn(Cc2ccc(Cl)c(Cl)c2)c2ccccc12	1.2	-0.3	-5%	13	0	-0.5	-5
O=C(COC(=O)c1cc(-c2ccco2)nc2ccccc12)NCc1ccccc1	-2.1	-1.4	28%	-6	26	-2.7	-15
CCCCn1c(N)c(N(CC(C)C)C(=O)CCCc2nc3ccccc3s2)c(=O)[nH]c1=O	3.8	-6.2	0%	4	-3	0.0	5
O=C(COC(=O)c1ccncc1)c1ccc(Cl)c(Cl)c1	2.2	1.0	1%	7	·	4.8	-8
CC(NS(=O)(=O)c1ccc(F)cc1)C(c1cccs1)N1CCOCC1 (configuration not stated)	-1.5	2.1	·	5	-9	0.9	-3
Nc1ccc(N2CCOCC2)cc1C(F)(F)F	8.9	0.9	1%	-3	13	-3.7	-2
CCn1c(C)nc2cc(N)ccc21	3.6	-2.7	26%	-4	98*	0.4	-2
NC(=O)C1=C[C@H](c2coc3ccccc3c2=O)C[C@H](OCCCCO)O1	1.2	-2.3	10%	-1	1	-2.5	-4
O=C(NCCCN1CCCCC1)C1(S(=O)(=O)c2ccc(Cl)cc2)CC1	-2.5	-8.3	2%	-4	·	5.2	3
Cc1ccc(OCC(=O)N/N=C\c2cccs2)c([N+](=O)[O-])c1	0.7	-1.4	7%	-9	-2	1.9	-5
CCOC(=O)CN1CC23C=CC(O2)C(C(=O)NC2CCCCC2)C3C1=O (configuration not stated)	0.7	-4.6	3%	-5	3	-0.5	4
CN=C(c1ccc([N+](=O)[O-])cc1)N1CCCCC1	1.0	2.3	-3%	13	·	-4.0	-8
CCCc1nc(SCC(=O)NCc2ccco2)c2c(=O)n(C)c(=O)n(C)c2n1	0.6	0.9	10%	-16	51	6.6	-3
Cc1ccc(-c2nnc(Nc3ccc(O)cc3)c3ccccc23)cc1S(=O)(=O)NCCO	-2.5	0.8	·	-5	97*	5.8	5
O=C(NCCc1ccccc1)C(=O)NCc1ccncc1	3.1	-4.5	-11%	10	-12	0.8	-8

Filtered by structure: the compounds so far containing a CF3 group.
SMILES	HNF4A DNA FP	LANA-H2B inh	Vif TR-FRET	Beta2AR agonist	ALR inh	RanGTP-Imp inh	Calb FLC
CCOC(=O)c1ccc(Oc2ccc(C(F)(F)F)cn2)cc1	1.3	0.7	3%	1	2	8.5	23
Nc1ccc(N2CCOCC2)cc1C(F)(F)F	8.9	0.9	1%	-3	13	-3.7	-2
